Assay outcomes from PubChem.
2A firefly: lowers the firefly signal of an FMDV 2A StopGo reporter; HEK cells with a luciferase reporter of 2A StopGo recoding; Potency, µM (top dose mostly 57.5 µM), inactives show at the top dose signal change, negative = less light; 120,000 tested, 0.23% active; active = well fitted falling curve with a large enough effect; inconclusive = small, poorly fitted or top-dose-only effect; inactive = no such curve, though single readings can be large or run the other way; note: nearly all actives have a fitted effect of over 60% in size; overnight with compound
2A Renilla: lowers the Renilla signal of an FMDV 2A StopGo reporter. HEK cells with a luciferase reporter of 2A StopGo recoding. Potency, µM (titrated, usually from 57.5 µM), for the others: at the top dose signal change, negative = less light. 120,000 tested, 0.32% active; active means well fitted falling curve with a large enough effect; inconclusive means small, poorly fitted or top-dose-only effect; inactive means no such curve, though single readings can be large or run the other way; note: nearly all actives have a fitted effect of over 55% in size; overnight with compound
The depositor's hits bear a star; u = inconclusive; [ ] = remark or other dose. % is set by controls: 0 for no effect and ±100 for the full control effect; potency is the fitted concentration of half-maximal effect. Not all compounds are listed (hit frequency here may not be typical).

cpd | canonical_smiles | 2A firefly | 2A Renilla
1 | CCS(=O)(=O)c1ccc2oc(Nc3ccc(OC(F)(F)F)cc3)nc2c1 | 5% | -1%
2 | Cc1ccc(CN(c2ccc(C(=O)N3CCCCCC3)cc2)S(C)(=O)=O)cc1 | -22% | 18%
3 | O=C(Nc1ccc(Br)cn1)Nc1ccc(F)cc1F | 34%[activator] | -8%
4 | O=C(Nc1ccc2oc(-c3cccc(Cl)c3)nc2c1)c1ccccc1 | 15% | -6%
5 | CC1(C)Cc2c(c(N3CCOCC3)nc3sc4c(NCCc5ccccc5)nnnc4c23)CO1 | 0% | -10%
6 | COc1cc(/C=c2\s/c(=C/C(=O)C(C)(C)C)[nH]c2=O)cc(Cl)c1OC | 28% | 30%
7 | COc1cccc2cc(-c3cc(=O)oc4cc(OCC(=O)OC(C)(C)C)ccc34)c(=O)oc12 | 3% | 16%
8 | Cc1ccc(CNC(=O)C23CCC(=O)N2CCS3)cc1 (centres undefined) | -7% | -14%
9 | COc1ccc(C(=O)COC(=O)Cc2coc3cc4c(cc23)CCC4)cc1OC | 0% | 26%
10 | COc1ccc2[nH]cc(CCNC(=O)Nc3ccc(F)cc3)c2c1 | -7% | 2%
11 | O=C(COc1c(I)cc(Cl)c2cccnc12)N1CCCC1 | 43%[activator] | 70%[activator]
12 | COc1ccc(C(=O)Nc2ccc3oc(-c4ccccc4)cc(=O)c3c2)cc1OC | 157%[activator] | 5%
13 | Cc1ccccc1-c1noc(-c2ccc(N3CCOCC3)c([N+](=O)[O-])c2)n1 | -80% | -2%
14 | Cc1nc2cc(NC(=O)C(C)Oc3ccc(Br)cc3)ccc2o1 (centres undefined) | 27% | 49%[activator]
15 | CCOC(=O)c1c(NC(=O)c2ccc(OCC)c(Br)c2)sc2c1CCCC2 | -11% | -9%
16 | CCc1nc(NC(=O)c2nc(-c3ccccc3)oc2C)sc1C | 0% | -11%
17 | NC(=O)NS(=O)(=O)c1ccc(N)cc1 | -13% | -4%
18 | O=C(Nc1cc(F)ccc1F)c1ccccc1-c1ccccc1 | -3% | 22%
19 | COC(=O)[C@H](C(C)C)N1CCc2nnn(Cc3ccc(C)cc3)c2-c2ccccc2S1(=O)=O | -5% | 138%[activator]
20 | COc1ccc(OC)c([C@@H]2Nc3ccc(C(=O)O)cc3[C@@H]3C=CC[C@@H]32)c1 | -15% | 7%
21 | CCCCN(C(=O)c1ccc(-c2ccc(Cl)cc2)o1)c1c(N)n(CC(C)C)c(=O)[nH]c1=O | -12% | -11%
22 | O=C(CC1Nc2ccccc2NC1=O)Nc1cccc(C(F)(F)F)c1 (centres undefined) | -9% | -1%
23 | COc1ccc(-c2nc(COc3ccc(F)c(Cl)c3)co2)cc1 | 33%[activator] | -6%
24 | Cc1cccc(C(=O)Nc2ccc(CCC(=O)N(C)C)cc2)c1 | 167%[activator] | 15%
25 | Cc1ccc(-n2nc(C)c(=O)c(-c3ccccc3)c2NC(=O)c2ccco2)cc1C | 7% | -5%
26 | COc1ccc(-c2c(C)c3c(C)cc(OC(C)=O)cc3oc2=O)cc1 | 12% | 5%
27 | Cc1cccc(Oc2nc(-c3ccncc3)nc3ccccc23)c1C | 3% | 1%
28 | COc1ccc(CCN2C(=O)c3[nH]nc(-c4ccccc4O)c3C2c2cccc(OC)c2)cc1 (centres undefined) | u | u
29 | Cn1nnc2c(NCc3ccccc3Cl)ncnc21 | -12% | 3%
30 | CCCNC(=O)C(C)OC(=O)c1ccc2[nH]c(C)c(C)c2c1 (centres undefined) | 40% | 10%

Some of these compounds in order of SMILES length, largest number first:
cpd | canonical_smiles | 2A firefly | 2A Renilla
5 | CC1(C)Cc2c(c(N3CCOCC3)nc3sc4c(NCCc5ccccc5)nnnc4c23)CO1 | 0% | -10%
15 | CCOC(=O)c1c(NC(=O)c2ccc(OCC)c(Br)c2)sc2c1CCCC2 | -11% | -9%
11 | O=C(COc1c(I)cc(Cl)c2cccnc12)N1CCCC1 | 43%[activator] | 70%[activator]

Later entries.
cpd | canonical_smiles | 2A firefly | 2A Renilla
31 | CNC(=S)c1ccc(N(C)C)cc1 | 40%[activator] | 23%
32 | CC(C)N(Cc1nc2ccccc2c(=O)[nH]1)C(=O)c1sc2cc(F)ccc2c1Cl | u | u
33 | CCC(=O)N1CCc2cc(CNS(=O)(=O)c3ccc(C(C)C)cc3)ccc21 | 9% | 101%[activator]
34 | O=C(NCC(c1cccnc1)N1CCc2ccccc21)c1ccc(F)cc1 (centres undefined) | 8% | -2%
35 | COc1ccccc1OC(C(=O)NC1CC1)c1ccccc1 (centres undefined) | -8% | -10%
36 | COc1cccc(CN(Cc2ccco2)c2cnc(S(C)(=O)=O)nc2C(=O)Nc2ccccc2)c1 | -6% | 16%
37 | CCOc1ccccc1CNC(=O)CN1C(=O)c2cccnc2Oc2ccc(Cl)cc21 | -3% | 6%
38 | Cc1nn(-c2ccccc2)c2sc(C(=O)OCC(=O)Nc3ccc(OC(F)F)cc3)cc12 | 11% | -3%
39 | Cc1cc2oc(=O)cc(CN(C)Cc3cccs3)c2cc1Cl | 51%[activator] | 4%
40 | O=C(CSc1ccc2c(c1)OCCCO2)NC(=O)c1cccs1 | 24% | 12%
41 | Cn1c(=O)c2c(nc(SCC(=O)Nc3ccc(F)cc3)n2Cc2ccc(Cl)cc2)n(C)c1=O | -5% | -11%
42 | O=C(/C=C/c1cccc(C(F)(F)F)c1)c1ccc(N2CCCC2=O)cc1 | 0% | 10%[1.06 µM]
43 | COc1cc(NS(=O)(=O)c2cccs2)cc(OC)c1 | 2% | 169%[activator]
44 | CC(SC1CCCC1)C(=O)Nc1cccc(C#N)c1 (centres undefined) | 15% | 13%
45 | O=C(O)c1cccnc1Sc1ccccc1F | -8% | 2%
46 | CCOc1cc(CNCc2ccccn2)cc(Cl)c1OCc1ccc(F)cc1 | u | u
47 | O=C1NCN(c2ccccc2)C12CCN(CCCC(c1ccc(F)cc1)c1ccc(F)cc1)CC2 | -28% | -24%
48 | Cc1[nH]c(C=O)c(C)c1C | 0% | 6%
49 | Cc1cn2c(=O)cc(COC(=O)c3cccc(NC(=O)c4ccccc4C)c3)nc2s1 | -16% | -5%
50 | Cc1ccc(NC(=O)[C@H](C)NC(N)=O)cc1Cl | 15% | 2%
51 | COc1ccc(-c2cc(C(F)(F)F)n3nc(C(=O)Nc4cccc(Cl)c4C)cc3n2)cc1 | 9% | 19%
52 | Cn1c(=O)[nH]c(=O)c2c1nc(N1CCN(Cc3ccccc3F)CC1)n2Cc1ccccc1 | 6% | -9%
53 | CC(C)N(Cc1ccccc1)c1ncnc2c1nnn2C | -25% | -18%
54 | O=C(Nc1ccccc1-c1ccccc1)c1cc(F)c(F)cc1Cl | 14% | 20%
55 | Cc1ccc(OCC(=O)N2CCN(c3cc(=O)n4nc(-c5ccccc5)sc4n3)CC2)c(C)c1 | 9% | -10%
56 | COc1cc(Cl)c(NC(=O)CN(C)S(=O)(=O)c2ccc3c(c2)CCCC(=O)N3)c(OC)c1 | 11% | 10%
57 | CC(C)c1ccc(OCC(=O)N(Cc2ccc(N(C)C)cc2)C2CCS(=O)(=O)C2)cc1 (centres undefined) | -30% | -7%
58 | O=C(Nc1ccccn1)c1ccc(C2SCCCS2)cc1 | 13µM* | 22%
59 | C#CCCN([C@H](C(=O)OC)C(C)CC)S(=O)(=O)c1ccccc1Br (some centres undefined) | -9% | 0%
60 | O=C(CCc1ccccc1)Nc1ccc(Cl)c(C(F)(F)F)c1 | u | u
61 | CCCCN(C)CC(O)Cn1cc(/C=C/C(=O)c2ccc(OCC)cc2)c2ccccc21 (centres undefined) | -6% | -10%
62 | COc1ccc(NC(=O)c2oc3ccccc3c2NC(=O)c2cc(=O)c3c(C)cc(C)cc3o2)cc1 | 16% | 8%
63 | CC(C)c1nn2c(=O)cc(COC(=O)c3ccccc3NC(=O)c3cccs3)nc2s1 | 0% | -5%
64 | CCc1ccc(N2CC(c3nnc(NC(=O)c4ccco4)s3)CC2=O)cc1 (centres undefined) | -5% | 0%
65 | CCc1cccc(Nc2ccc3cc(S(=O)(=O)N4CCCC4)ccc3n2)c1 | 9% | 0%
66 | N#Cc1ccc(-c2ccc(OCC(=O)NC34CC5CC(CC(C5)C3)C4)cc2)cc1 | u | -5%[1.06 µM]
67 | COc1ccc([C@@H]2[C@@H](C(N)=O)C2(C#N)C#N)cc1 | 40%[activator] | 8%
68 | CC1CCc2nc3ncn(Cc4cccc(F)c4)c(=O)c3cc2C1 (centres undefined) | 19% | 1%
69 | Cc1cccc(-n2ncc3c(N4CCN(c5ccccc5)CC4)ncnc32)c1 | -7% | -14%
70 | CC(C)(C)CC(C)(C)NCc1ccc2c(c1)OCO2 | 13% | -14%
71 | Cc1c(OCC(=O)OC(C)C)ccc2c(-c3ccccc3)cc(=O)oc12 | 5% | -7%
72 | CCCCN(CCCNC(=O)c1c(C)oc2nc[nH]c(=O)c12)Cc1ccccc1 | -21% | -8%
73 | Cc1ccc(SCc2cc(=O)[nH]c(N3CCN(c4ccccc4)CC3)n2)cc1 | 0% | -4%
74 | Cc1oc(-c2ccc(Cl)cc2)nc1CN1CCCC(C(=O)NCc2ccccc2)C1 (centres undefined) | -5% | 5%
75 | N#Cc1nc(COc2ccc(F)cc2)oc1N1CCCC1 | 18% | -4%
76 | CN(Cc1ccccc1)C(=O)c1ccc(OCc2ccccc2)cc1 | 0% | 62%[activator]
77 | COc1ccc(C(=O)NC(=S)NCCO)cc1I | 18% | 0%
78 | CCC1CN(C(=O)N2CCC(C(=O)NCc3ccccc3F)CC2)c2ccccc2O1 (centres undefined) | u | 22%
79 | COc1ccc(CNC(=O)C2CCN(S(=O)(=O)c3ccc4c(c3)CCCN4C(C)=O)CC2)cc1 | 5% | 24%
80 | O=C(CSc1nc(-c2ccco2)nc2ccccc12)N1CCCCCCC1 | 6% | 32%[activator]
81 | COc1ccc(C(=O)N2CCN(c3nc4cccnc4o3)CC2)cc1C#N | 3% | -7%
82 | CCOc1ccc(C(=O)NCC(c2ccc(Cl)cc2)N2CCCCC2)cc1 (centres undefined) | -28% | -17%
83 | O=C(Nc1nnc(SCc2cc(=O)n3cc(Cl)ccc3n2)s1)c1cccc(F)c1 | -15% | -9%
84 | COc1ccccc1-c1nc2c(c(SCC(=O)Nc3c(C)cc(C)cc3C)n1)Cc1c(CO)cnc(C)c1O2 | -7% | 2%
85 | O=C(CN(C1CCCCC1)S(=O)(=O)c1ccc(Br)cc1)N1CCCCCC1 | 9% | 436%[activator]
86 | COc1ccccc1-c1nnc(C2CCN(C(=O)c3ccccc3C)CC2)o1 | -16% | -15%
87 | N#Cc1ccccc1NC(=O)C1CCCC1 | 0% | 20%
88 | O=c1cc(CN2CCN(C/C=C/c3ccccc3)CC2)c2cc(O)c(-c3ccccc3)cc2o1 | -4% | -20%
89 | COc1ccc(-n2ccnc2SCC(=O)Nc2nnc(C)s2)cc1 | 0% | u
90 | CC(C)C(=O)N1CCC(C(=O)NCC2(c3ccccc3)CC2)CC1 | 0% | -3%

Of the compounds above, six contain a cyano group.
cpd | canonical_smiles | 2A firefly | 2A Renilla
44 | CC(SC1CCCC1)C(=O)Nc1cccc(C#N)c1 (centres undefined) | 15% | 13%
66 | N#Cc1ccc(-c2ccc(OCC(=O)NC34CC5CC(CC(C5)C3)C4)cc2)cc1 | u | -5%[1.06 µM]
67 | COc1ccc([C@@H]2[C@@H](C(N)=O)C2(C#N)C#N)cc1 | 40%[activator] | 8%
75 | N#Cc1nc(COc2ccc(F)cc2)oc1N1CCCC1 | 18% | -4%
81 | COc1ccc(C(=O)N2CCN(c3nc4cccnc4o3)CC2)cc1C#N | 3% | -7%
87 | N#Cc1ccccc1NC(=O)C1CCCC1 | 0% | 20%

(list continues)
cpd | canonical_smiles | 2A firefly | 2A Renilla
91 | CC(=O)Nc1ccc(N2C(=O)C(=O)/C(=C(/O)c3ccc(C)cc3)C2c2ccccc2)cc1 (centres undefined) | 14% | 5%
92 | O=C(Nc1cccc(O)c1)c1cc(-c2ccco2)nc2ccccc12 | 26% | 1%
93 | O=C(Nc1c(C(=O)NC2CCCCC2)cnn1-c1ccccc1)c1ccccc1 | -5% | 25%
94 | Cc1cc(C)cc(-n2nnc(-c3nc(-c4ccc5c(c4)OCO5)no3)c2C)c1 | -9% | 2%
95 | COc1ccc(CCC(=O)NC2CC(=O)N(c3ccc(F)cc3)C2)cc1 (centres undefined) | 3% | -11%
96 | O=C(c1ccco1)N1CCNCC1 | -17% | -11%
97 | Cc1ccc(N(C)S(=O)(=O)c2cccc(C(=O)Nc3nc4ccccc4[nH]3)c2)cc1 | u | u
98 | COc1ccccc1CNC(=O)c1cc2cc3ccc(Cl)cc3nc2o1 | -11% | -10%
99 | CCCc1cc(=O)oc2cc(OC(C)C(=O)OCC)ccc12 (centres undefined) | 5% | -2%
100 | O=C(Cn1ncc2c3ccccc3n(Cc3ccc(Cl)cc3)c2c1=O)NCCCc1ccccc1 | 1% | -2%
101 | Cc1ccc(NC(=O)C(Sc2ccc(S(=O)(=O)N3CCCC3)cn2)c2ccccc2)cc1 (centres undefined) | 27% | 189%[activator]
102 | COc1ccc(-c2nc(C#N)c(NC3CCCCC3)o2)cc1 | 6% | 0%
103 | Cc1cc(C2CCCCC2)n(O)c(=O)c1 | 19%[11.5 µM] | 26%
104 | CCCOc1ccc(C(=O)Nc2cc(-c3nc4cc(C)cc(C)c4o3)ccc2C)cc1 | -14% | -13%
105 | Cc1ccc2c(CC(=O)N(Cc3cccs3)C3CC3)coc2c1C | 31% | 96%[activator]
106 | COc1ccccc1N1CCN(c2ncnc3onc(C)c23)CC1 | -20% | -10%
107 | O=C(CSc1nccn1Cc1ccco1)Nc1ccc(F)cc1 | 18% | 27%
